# Compound activity from PubChem BioAssay.
# RE007 growth inh = less growth of the S. pombe RE007 Vpr strain; 360,000 compounds, 0.21% hits; S. pombe RE007 Vpr strain, BacTiter-Glo ATP luminescence, 24 h; control for the full effect not named in the record; AID 651644; Potency, µM (top dose mostly 92.2 µM), without a hit: at the highest dose activity change, negative = less growth; active = well fitted falling curve with a large enough effect; inconclusive = small, poorly fitted or top-dose-only effect; inactive = no such curve, though single readings can be large or run the other way;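 note: % is set by controls: 0 for no effect and ±100 for the full control effect; nearly all actives have a fitted effect of over 50% in size; the assay follows cell death caused by Vpr and the record does not say whether a fall means rescue or toxicity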
#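 Fission yeast RE007 carrying one integrated HIV-1 vpr copy, seeded at OD 0.01 in PMG+AL medium with 23 nL pinned compound. Grown 24 h at 30 degrees; viability read by BacTiter-Glo luminescence after 5 min.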
# SARS PLpro yeast = inhibitors of SARS-CoV papain-like protease in yeast; AID 485353; 330,000 compounds, 0.19% hits; Potency, µM (highest dose often 32.9 µM), for the others: at the top dose activity, positive = growth rescue; S. cerevisiae expressing SARS-CoV PLpro, growth rescue; control for the full effect not named in the record; note: 0% is about no effect; nearly all actives have a fitted effect of over 55% in size; growth read by luminescence after 48 h
# NS1 inh = inhibitors of influenza NS1 protein function. 270,000 compounds, 0.4% hits. S. cerevisiae slowed by influenza A NS1, growth recovery by OD600. AID 2326. Potency, µM (doses to about 46.1 µM), for inactives: at the top dose activity, positive = more growth; note: actives are rising curves; nearly all actives have a fitted effect of over 50% in size
#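 S. cerevisiae expressing influenza A NS1, grown in glucose, washed, then diluted 1:100 into pH 6.0 -URA galactose medium with 23 nl compound. Growth recovery read as OD600; NS1-free strain serves as control.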
# Marburg entry inh = inhibitors of Marburg virus binding or cell entry; Marburg virus pseudotyped entry inhibition, cell reporter; control for the full effect not named in the record; about a third of the inactives were read at about 46 µM; Potency, µM (highest dose often 37.8 µM), for inactives: at the top dose activity change, negative = inhibition, hits mostly inhibitors; 300,000 compounds, 1.8% hits; AID 540276; active = well fitted inhibition curve with a large enough effect; inconclusive = small, poorly fitted or top-dose-only effect, or effect the other way; inactive = flat fitted curve, though single readings scatter; tested in HEK293 cells; about a fifth of its hits are not listed in these tables; note: % is set by controls: 0 for no effect and ±100 for the full control effect; luciferase read-out
# Cruzain noTriton = inhibitors of Trypanosoma cruzi cruzain without detergent; P25779; purified cruzain, Z-FR-AMC fluorescence, no detergent; Potency, µM, for the others: max response, negative = inhibition, usual class: inhibitors; 200,000 compounds, 2.3% hits; active = well fitted curve in the direction sought with a large enough effect; inconclusive = small, poorly fitted or top-dose-only effect, or another doubt; inactive = no such curve, though single readings can be large; an effect the other way counts as inactive or inconclusive;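 note: plate controls were enzyme without inhibitor for no effect and buffer without enzyme for full effect; nearly all actives have a fitted effect of over 40% in size; top concentration of the series not given in the record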
# Target sequence (P25779 123-467 limits assumed): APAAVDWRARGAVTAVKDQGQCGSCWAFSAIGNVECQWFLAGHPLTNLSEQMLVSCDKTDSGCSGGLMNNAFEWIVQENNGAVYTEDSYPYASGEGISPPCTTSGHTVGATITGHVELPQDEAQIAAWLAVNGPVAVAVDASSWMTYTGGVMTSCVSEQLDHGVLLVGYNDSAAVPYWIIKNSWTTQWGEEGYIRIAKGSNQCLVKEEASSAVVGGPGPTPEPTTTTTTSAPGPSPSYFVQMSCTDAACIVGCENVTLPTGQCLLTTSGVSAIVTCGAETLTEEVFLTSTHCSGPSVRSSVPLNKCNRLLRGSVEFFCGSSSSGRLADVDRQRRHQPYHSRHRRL
#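 Detergent-free condition (0.00005% Triton X-100) in acetate buffer pH 5.5 with DTT. 1.5 nM enzyme and compound were pre-mixed 15 min, then 2 uM Z-FR-AMC substrate added; reaction progress from fluorescence change between first and third reads (60 s).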
# 2A StopGo = lowers the luciferase signal of an FMDV 2A StopGo reporter; AID 1159524; human cells with a luciferase reporter of 2A StopGo recoding; control for the full effect not named in the record; 410,000 compounds, 1.2% hits; Potency, µM (top dose mostly 57.9 µM), without a hit: at the highest dose signal change, negative = less light; active = well fitted falling curve with a large enough effect; inconclusive = small, poorly fitted or top-dose-only effect; inactive = no such curve, though single readings can be large or run the other way; tested in HEK293T cells; note: % is set by controls: 0 for no effect and ±100 for the full control effect; nearly all actives have a fitted effect of over 45% in size; luciferase light after 4 h
# Cruzain Triton = cruzain (T. cruzi) inhibition with detergent | P25779 | purified cruzain, Z-FR-AMC fluorescence, 0.01% Triton | Potency, µM, for inactives: max response, negative = inhibition, actives largely listed as inhibitors | 200,000 compounds, 0.43% hits | AID 1478; active = well fitted curve in the direction sought with a large enough effect; inconclusive = small, poorly fitted or top-dose-only effect, or another doubt; inactive = no such curve, though single readings can be large; an effect the other way counts as inactive or inconclusive;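 note: plate controls were neutral wells for no effect and buffer without enzyme for full effect; nearly all actives have a fitted effect of over 40% in size; top concentration of the series not given in the record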
#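 Cysteine protease activity tested under reducing, mildly acidic conditions (100 mM sodium acetate pH 5.5, 5 mM DTT) plus 0.01% Triton X-100. Cruzain 1.5 nM; substrate Z-FR-AMC 2 uM; 15 min compound preincubation at room temperature.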
# LASV entry inh = inhibitors of Lassa virus binding or cell entry; Lassa virus pseudotype entry inhibition, cell reporter; control for the full effect not named in the record; Potency, µM (highest dose often 37.9 µM), for inactives: at the top dose activity change, negative = inhibition, usual class: inhibitors; 300,000 compounds, 1.2% hits; AID 540256; active means well fitted inhibition curve with a large enough effect; inconclusive means small, poorly fitted or top-dose-only effect, or effect the other way; inactive means flat fitted curve, though single readings scatter; tested in HEK293 cells; note: % is set by controls: 0 for no effect and ±100 for the full control effect; nearly all actives have a fitted effect of over 50% in size; luciferase read-out
# * = called active by the depositor; ? = inconclusive; . = no result given; & = joins results of further samples; [ ] = dose if it differs, or a comment. Unless noted, calls come from the whole dose curve; as a rule, active means well fitted rising curve with a large enough effect; inconclusive means small, poorly fitted or top-dose-only effect; inactive means no such curve, though single readings can be large or run the other way. Potency is the fitted concentration of half-maximal effect.
SMILES,RE007 growth inh,SARS PLpro yeast,NS1 inh,Marburg entry inh,Cruzain noTriton,2A StopGo,Cruzain Triton,LASV entry inh
CCCCC/C(=N/O)c1c(C)[nH]c2ccccc12,-19%,1%,-7%,?,.,-20%,.,?
Cc1occc1-c1nnc(SCC(=O)Nc2ccccc2)n1C,-16%,0%,-3%,-3%[46.1 µM],.,11%,.,1%[46.1 µM]
COC(=O)c1sc(N2C(=O)c3oc4ccccc4c(=O)c3C2c2cccc(O)c2)nc1C (stereo unspecified),-12%,-3%,9%,12%[46.1 µM],.,-22%,.,0%
Cc1cc2nc(-c3cccc(NC(=O)c4ccc(Br)o4)c3)oc2cc1C,0%,13%,-3%,7%,?,-17%,11%,0%
COc1cc(OC)cc(C(=O)Nc2cccc3cccnc23)c1,-23%,-1%,14%,.,.,10%,.,-2%
COC(=O)c1ccccc1NC(=O)CN1C(=O)COc2ccccc21,.,.,.,-5%[46.1 µM],-10%,-9%,-2.4%,.
Cc1cccc(NC(=O)CN2C(=O)c3cccc4cccc2c34)c1C,.,.,.,15%[46.1 µM],5%,0%,-0.9%,5%[46.1 µM]
CCOC(=O)N1CCN(c2c(NCCN3CCCCC3CC)c(=O)c2=O)CC1 (stereo unspecified),12%,-2%,3%,.,11%,8%,1.3%,.
c1cnc(N2CCN(c3ncnc4c3oc3ccccc34)CC2)nc1,.,0%,-16%,-7%,14%,.,-6.5%,.
CCOC(=O)N1CCC(N2CCN(CCC(C)C)C(CCO)C2)CC1 (stereo unspecified),-8%,1%,5%,.,.,-9%,.,.
Cc1cc(C)cc(NC(=O)Cc2noc3ccccc23)c1,.,.,.,.,-21%,37%[activator],-6.1%,?
CCOC(=O)Cc1csc(NC(=O)CC(C)(C)C)n1,-9%,12%,5%,?,2%,23%,3.0%,7.1µM*
CCC(C)NC(=O)CC(C)C (stereo unspecified),7%,0%,-2%,-1%[46.1 µM],.,31%[activator],.,13%[46.1 µM]
Cc1nnc(SCc2cccc(CSc3nnc(C)s3)c2)s1,13%,-19%,-49%,-6%,6%,15%,1.1%,11%
O=C(COc1ccc(S(=O)(=O)N2CCCC2)cc1Cl)NCc1ccccn1,16%,-8%,-1%,20%,.,-25%,.,-6%
COc1ccc(NC(=O)CN2CCN(Cc3ccccc3Cl)S2(=O)=O)cc1Cl,.,.,.,-19%[46.1 µM],-17%,-11%,-9.3%,-2%[46.1 µM]
COc1ccc2c(c1OC)C(=O)OC2c1c(O)n(Cc2ccc(F)cc2)c(=O)[nH]c1=O (stereo unspecified),-22%,7%,19%,1%,10%,-5%,4.7%,-9%
CC(C)N1CCN(Cc2ccsc2)CC1CCO (stereo unspecified),-6%,1%,7%,5%[46.1 µM],.,11%,.,4%
N#Cc1ccc(C(=O)Nc2cc(S(=O)(=O)N3CCOCC3)ccc2N2CCCC2)cc1,-6%,1%,.,1%,.,5%,.,8%
Cc1cc(C)cc(OC(=O)c2cccnc2)c1,-27%,1%,-2%,.,.,3%,.,.
COc1ccccc1CNC(=O)Cn1ncc2c(C)n(Cc3ccccc3Cl)c(C)c2c1=O,.,.,.,28%[46.1 µM],-8%,-24%,-5.5%,?
O=C(OC(C(=O)NC1CCCCC1)c1ccccc1F)c1ccco1 (stereo unspecified),3%,3%,-5%,-14%,.,0%,.,1%
O=C(/C=C/c1cccs1)NC1CCCC1,-11%,-4%,-10%,-14%[46.1 µM],.,28%,.,-10%[46.1 µM]
COc1ccc(NS(=O)(=O)c2ccc(C(=O)N3CCC(C)CC3)cc2)cc1,-10%,1%,.,?,.,-14%,.,?
CCc1ccc(S(=O)(=O)Nc2ccc(N3CCN(C)CC3)cc2)cc1,-3%,1%,1%,-17%[46.1 µM],.,6%,.,4%
CCc1ccc(N(CC)C(=O)Cn2c(=O)oc3ccccc32)cc1,.,.,.,-1%[46.1 µM],5%,?,-2.8%,32%[46.1 µM]
CCOc1ccc(NC(=O)Cn2c(=O)n(Cc3ccc(C(=O)NCc4ccc5c(c4)OCO5)cc3)c(=O)c3ccccc32)cc1,.,.,.,-6%[46.1 µM],?,-18%,-2.7%,0%[46.1 µM]
O=C(COC(=O)CNC(=O)c1ccccc1)Nc1ccc(S(=O)(=O)N2CCCC2)cc1,-9%,2%,.,8%,.,12%,.,-1%
NC1=NC(=Nc2ccc(S(N)(=O)=O)cc2)c2ccccc21,8%,0%,-2%,.,.,-6%,.,.
O=C(COc1ccccc1Cl)Nc1ccc(C(=O)N2CCCCC2)cc1,14%,-2%,-18%,.,.,-21%,.,.
COc1ccc(/C=N/NC(=O)CNC(=O)c2ccc(S(=O)(=O)N3CCOCC3)cc2)cc1OC,-6%,-15%,-3%,7%,-3%,8%,0.1%,5%
O=C(NCc1cc(C(F)(F)F)cc(C(F)(F)F)c1)C1CC(c2ccccc2[N+](=O)[O-])=NO1 (stereo unspecified),-4%,-7%,10%,5%,11%,-29%,-2.8%,.
CCOC(=O)C1=C(CN2CCN(C(=O)c3ccco3)CC2)NC(=O)NC1c1ccc(F)cc1 (stereo unspecified),-4%,2%,-5%,-2%[46.1 µM],.,-8%,.,-26%[46.1 µM]
Cc1c(OC(C)C(=O)NCC(O)c2ccccc2)ccc2c3c(c(=O)oc12)CCC3 (stereo unspecified),-10%,-2%,-15%,.,.,-22%,.,.
COCC(=O)NCCc1nc2ccccc2[nH]1,9%,-1%,7%,.,?,-1%,-11%,.
COc1ccccc1CNc1ccccc1F,2%,0%,-3%,6%[46.1 µM],.,-2%,.,8%[46.1 µM]
CCOc1ccc(NC(=O)C2CCN(S(=O)(=O)c3ccc4c(c3)C(C)(C)C(=O)N4C)CC2)cc1,-2%,-4%,-8%,.,.,-17%,.,.
Cc1noc(C)c1C(=O)Nc1ccc2c(c1)CCC2,3%,.,-9%,14%,5%,49%,2.0%,43%[14.3 µM]
Cn1nc(C(=O)NNC(=O)c2cccc(Cl)c2)c2ccccc2c1=O,-5%,3%,.,?,.,9%,.,3%
CC(C)(C)C(=O)N1CCN(c2nc3c(F)cccc3s2)CC1,.,.,.,.,-8%,6%,0.6%,8%[46.1 µM]
COc1cccc(C(=O)c2sc(Nc3ccc(C)cc3C)c(S(=O)(=O)c3ccccc3)c2N)c1,.,.,.,?,7.9µM*,-19%,-4.4%,?
COc1ccc(/C=C(\NC(=O)c2ccccc2)C(=O)N2CCN(C)CC2)cc1OC,-11%,1%,-13%,?,.,7%,.,.
CCOC(=O)C1=C(C)NC(=S)N(C(C)=O)C1c1ccc(OC)c(OC)c1 (stereo unspecified),23%,1%,-7%,?,.,0%,.,-26%[46.1 µM]
CC1(C)Cc2nc(NC3CCCCC3)c(C#N)cc2CO1,-21%,1%,2%,?,.,-29%,.,3%
COc1cc(NC(=O)CSc2nc3ncccc3o2)cc(OC)c1,.,.,.,.,2%,-4%,-3.0%,-1%[46.1 µM]
NS(=O)(=O)c1ccc(CCNC(=O)CCCCCNc2nc(=S)[nH]c3ccccc23)cc1,.,-7%,-4%,1%,-6%,.,-1.5%,.
COc1cccc(OC)c1NC(=O)C1CCCN1C(=O)Nc1ccccc1Cl (stereo unspecified),-4%,1%,7%,7%[46.1 µM],.,-11%,.,1%
CCOC(=O)C1C(=O)OC(C)(C)C1C(CC)C(=O)c1ccccc1 (stereo unspecified),3%,0%,1%,17%[46.1 µM],.,5%,.,.
COc1ccc(C(=O)N/C(=C/c2cccnc2)C(=O)N2CCCCCC2)cc1OC,-7%,1%,-15%,.,.,4%,.,.
CN1CCN(S(=O)(=O)c2ccc3c(c2)oc(=O)n3C)CC1,-1%,16%,1%,-7%[46.1 µM],.,-16%,.,?
Cc1scc(-c2n[nH]c(=S)n2Cc2ccccc2)c1C,-8%,?,-10%,-25%,0%,-22%,-3.3%,-4%
Cc1nc2scc(-c3ccccc3)c2c(=O)o1,-3%,-1%,-6%,8%[46.1 µM],6%,-28%,-2.9%,-30%
Cc1cccc(-n2c3nc(=O)n(C)c(=O)c-3cc3c(Cl)cccc32)c1C,.,.,.,6%[46.1 µM],-7%,4%,-0.2%,10%[46.1 µM]
O=C(Nc1cccc(C(=O)Nc2ccccc2F)c1)c1ccccc1,-13%,-3%,-7%,-3%[46.1 µM],.,-5%,.,-10%[46.1 µM]
CCOC(=O)Cc1nnc(NC(=O)c2ccccc2OC)s1,-2%,3%,-5%,18%,-3%,17%,-1.6%,-4%
Cc1cc(CN(C)C(=O)C2CCC(=O)N(CCc3ccccc3)C2)n[nH]1 (stereo unspecified),3%,-1%,-5%,1%,.,-22%,.,4%
COc1ccc([N+](=O)[O-])cc1NS(=O)(=O)c1cccc(C(=O)NCCCN2CCCC2=O)c1,8%,-1%,.,-8%[46.1 µM],.,16%,.,3%[46.1 µM]
CCCc1cc(=O)oc2cc(OCC(=O)NC(Cc3ccc(Cl)cc3)C(=O)O)ccc12 (stereo unspecified),13%,-3%,?,.,.,-15%,.,.
COc1ccc(OC)c(NC(=O)CN(C)CC(=O)Nc2ccccc2Cl)c1,-4%,-4%,-10%,1%[46.1 µM],.,0%,.,3%[46.1 µM]
Oc1ccc(/C=N/Nc2ccccc2)cc1,3%,-1%,-4%,-18%[46.1 µM],.,2%,.,?
# (continued)
SMILES,RE007 growth inh,SARS PLpro yeast,NS1 inh,Marburg entry inh,Cruzain noTriton,2A StopGo,Cruzain Triton,LASV entry inh
Cc1ccccc1-n1c(C)cc(/C=C(\C#N)C(=O)NCC2CCCO2)c1C (stereo unspecified),23%,5%,-8%,-40%,18%,36%[activator],-8.2%,15µM*
Cc1cc(=O)[nH]c(N/N=C/c2c(C)nn(-c3ccccc3)c2C)n1,8%,-1%,.,6%[46.1 µM],.,-1%,.,13%[46.1 µM]
CCOC(=O)c1nn(-c2ccccc2)c(=O)c2c(NC(C)=O)scc12,3%,-1%,.,-1%&-1%[46.1 µM],.,-10%,.,.
O=c1[nH]nc(-c2ccc(NCCO)c([N+](=O)[O-])c2)c2ccccc12,-13%,-1%,3%,-18%[46.1 µM],.,-12%,.,-13%[46.1 µM]
CCCCOc1ccc(-n2nc(C)cc2C)nn1,-15%,-4%,-51%,16%,1%,18%,5.3%,30%
